Screening results as filed in PubChem BioAssay.
UUG fidelity: alters start codon recognition fidelity in yeast. S. cerevisiae UUG-firefly luciferase reporter, luminescence/redox ratio. activity score, % at 18.7 µM. 0.13% of 350,000 active. AID 602363;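 active = replicate mean at a twofold rise or more, about +100% in these data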;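 also: firefly luciferase made from a UUG start codon reports start codon fidelity; reporter light over untreated wells divided by growth signal over untreated wells; some hits fall short of that in this replicate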
CSC inhib: blocks cancer stem cells. cancer stem cell-like cells viability, luminescence. 1.1% of 300,000 active. inhibition, % at 7.5 µM;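 active = mean at 75% or more and at least half the replicates too; inconclusive = mean and replicates disagree; tested in HMLE shEcad cells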;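 also: 0% = median of negative and 100% = median of positive control wells; the first replicate is given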
MT1-MMP act inh: inhibitors of human MT1-MMP activation; HT1080 RFP-PRO-GFP cells, GFP/RFP ratio fluorescence, overnight; percent of plate control window, DMSO zero; GFP/RFP ratio change, % at 20 µM; 0.061% of 360,000 active;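 active = GFP/RFP ratio change of at least 30% with cell ATP level not reduced by more than half and red fluorescence within 50% of control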; also: strong numbers were not always called active
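Test system: HT1080 cells expressing an RFP-PRO-GFP fluorescent reporter construct / Compound dosing: single-point 20 µM compound, 1% DMSO / Schedule: cells overnight before dosing, compound overnight, 37 °C, 5% CO2 / Evaluation: GFP/RFP fluorescence ratio / Control set: DMSO and RFP-L50D-GFP cell wells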
PABP FP inh: blocks human PABP binding to poly(A) RNA | fluorescence polarization | inhibition, % at 35 µM | 1% of 290,000 active | AID 2014;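 active = 50% or more with normal probe brightness, or confirmed in later tests; inconclusive = above 50% with abnormal brightness, or retests that disagree; inactive = below 50% or failed in later tests; about a fifth of its hits are not listed in these tables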;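 also: calls also rest on retests at 20 µM and on dose response follow-up; controls were probe without protein and protein plus probe with vehicle; some compounds called inactive have numbers as strong as hits; many hits fall short of the cut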
Target sequence (P11940 whole entry, looked up): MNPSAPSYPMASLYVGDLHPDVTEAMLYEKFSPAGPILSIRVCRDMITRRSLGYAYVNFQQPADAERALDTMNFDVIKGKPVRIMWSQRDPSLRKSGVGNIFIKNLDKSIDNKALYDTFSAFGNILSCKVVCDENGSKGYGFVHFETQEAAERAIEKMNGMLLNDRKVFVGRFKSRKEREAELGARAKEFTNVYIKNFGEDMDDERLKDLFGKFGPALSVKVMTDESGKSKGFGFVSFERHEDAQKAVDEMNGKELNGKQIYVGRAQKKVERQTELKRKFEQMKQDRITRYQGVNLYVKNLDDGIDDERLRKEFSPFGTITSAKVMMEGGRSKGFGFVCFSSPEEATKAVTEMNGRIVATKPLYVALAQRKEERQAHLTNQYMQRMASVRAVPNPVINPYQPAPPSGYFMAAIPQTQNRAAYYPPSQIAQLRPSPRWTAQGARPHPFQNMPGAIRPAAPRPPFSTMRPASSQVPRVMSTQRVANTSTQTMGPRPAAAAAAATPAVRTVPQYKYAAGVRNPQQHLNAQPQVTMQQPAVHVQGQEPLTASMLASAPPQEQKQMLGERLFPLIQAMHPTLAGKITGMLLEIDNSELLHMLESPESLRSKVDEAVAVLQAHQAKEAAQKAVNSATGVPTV
Env fusion inh: HIV envelope-mediated fusion inhibition; HeLa-JRFL Env/CEM21 cell fusion, luciferase; inhibition, % at 12.3 µM; 1.1% of 360,000 active; AID 651610;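 active = mean replicate inhibition score of at least 50 and every replicate individually at or above 50; inconclusive = only one of the two criteria met; inactive = mean below 50 and not all replicates reaching 50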;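 also: 0% = plate neutral controls and 100% = maraviroc near 300 nM; one replicate is shown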
eIF4H inh: inhibitors of RNA binding by human eIF4H. Q15056. eIF4H fluorescence polarization binding assay. inhibition, % at 35 µM. 0.94% of 290,000 active. AID 2012;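 active = 50% or more with normal probe brightness, or confirmed in later tests; inconclusive = above 50% with abnormal brightness, or retests that disagree; inactive = below 50% or failed in later tests; about a fifth of its hits are not listed in these tables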;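 also: calls also rest on retests at 20 µM and on dose response follow-up; 0% = protein and probe with vehicle and 100% = probe without protein; strong numbers were not always called active; many hits fall short of the cut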
Rce1 inh: yeast Ras-converting enzyme inhibition; yeast membranes, quenched prenylated peptide cleavage fluorescence; calls only; 0.27% of 290,000 active;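 active = fall in fluorescence gain of 50% or more versus controls, with final raw signal at or below 3038400; inconclusive = same 50% fall but final raw signal above 3038400; inactive = fall in fluorescence gain under 50%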;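 also: plate controls were neutral control wells for no effect and wells lacking membranes for full effect; tested at 10 µM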
eIF4H inh retest: further read-out of eIF4H inh, marked with its call; inhibition, %; compound at 20 µM; confirmation average;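 mean of two retest wells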
PABP FP inh retest: also measured in PABP FP inh; calls as there; inhibition, %; compound at 20 µM; confirmation repeats;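 mean of two retest wells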
MT1-MMP act inh RFP: recorded beside MT1-MMP act inh, whose call it bears; RFP signal change, %; measured here: RFP expression control read;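 0 = vehicle wells; hits needed this value within 50% of zero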
* = called active by the depositor; i = inactive; ? = inconclusive; nt = no result given.

SMILES | UUG fidelity | CSC inhib | MT1-MMP act inh | MT1-MMP act inh RFP | PABP FP inh | Env fusion inh | eIF4H inh | Rce1 inh | others
Cc1c(NC(=O)c2cc(-c3ccco3)on2)c(=O)n(-c2ccccc2)n1C | -9 | -3 | -3 | -1 | 5 | nt | -2 | i
Cc1nnn(C23CC4CC(CC(CC(=O)Nc5cccc(F)c5)(C4)C2)C3)n1 | nt | -9 | -2 | -2 | 12 | 3 | 9 | i
CCC(CC)COC(=O)C(C#N)c1nc2ccccc2nc1N1CCOCC1 (stereo not given) | -11 | 21 | -13 | -13 | -2 | ? | -9 | i
Cc1cc(NC(=O)C(C)SCC(=O)Nc2ccc(Br)cc2Br)no1 (stereo not given) | -39 | -19 | -1 | 2 | nt | 14 | nt | i
Cc1ccc2nc(N(CCN(C)C)C(=O)/C=C/c3cccs3)sc2c1 | nt | -14 | -3 | -9 | -4 | nt | -5 | i
COc1cccc(CCNC(=O)c2ccc(C#N)cc2)c1 | nt | 2 | -2 | 1 | 3 | 0 | -4 | i
COCCSc1nnc(NC(=O)C2CC(=O)N(c3ccc(C)cc3)C2)s1 (stereo not given) | nt | -22 | 2 | 6 | 22 | -1 | 2 | i
COc1ccccc1CNC(=O)[C@H](C)NC(=O)C1CCN(C(=O)[C@@H](N)CC(C)C)CC1 | -16 | -4 | -5 | 0 | 4 | nt | 40 | i
C[C@H](CO)N1C[C@H](C)[C@@H](CN(C)C(=O)Nc2ccccc2)Oc2c(NC(=O)Cc3ccccc3)cccc2C1=O | 0 | -4 | 0 | -1 | nt | 17 | nt | nt
O=C(/C=C/c1ccccc1Cl)NC1CCCCC1 | -18 | 12 | 4 | -1 | 6 | -23 | -2 | i
CCOCCCNC(=O)c1ccc(N2CCCC2)c(NS(=O)(=O)c2ccc(C)cc2)c1 | nt | -1 | -1 | -4 | 0 | 5 | -3 | i
Cc1cc(=O)oc2cc(OCC(=O)Nc3cccc(S(=O)(=O)N(C)C)c3)ccc12 | nt | -4 | 8 | 1 | -8 | 3 | -1 | i
COc1ccc(CNC(=O)C(c2ccncc2)N(C(=O)Cc2cccs2)c2ccccc2)cc1 (stereo not given) | nt | nt | -3 | 1 | -11 | 0 | -24 | nt
CC1CCc2nc(NC(=O)CN3CCOCC3)sc2C1 (stereo not given) | -22 | nt | 1 | 5 | -9 | nt | 2 | i
N#Cc1c(Nc2ccc(F)cc2)sc(C(=O)c2ccccc2)c1N | nt | 2 | -1 | -7 | -4 | -15 | -3 | i
CCC(CC)c1nnc(NC(=O)c2ccco2)s1 | nt | -12 | 1 | 2 | 3 | -1 | -2 | i
Cc1ccc(CN2C(=O)N/C(=C\c3ccc(N4CCOCC4)cc3)C2=O)cc1 | nt | 30 | -3 | 2 | 26 | -134 | -1 | i
CCC1CCCN1Cn1cnc2c([nH]c3ccc(OC)cc32)c1=O (stereo not given) | nt | -5 | 2 | 6 | -5 | nt | 10 | i
CN(C)C1(CNC(=O)C2CCN(S(=O)(=O)c3cccc(C(F)(F)F)c3)CC2)CCCCC1 | -10 | 10 | -1 | 1 | -5 | nt | -9 | i
O=C(O)C1CCCN1C(=O)Nc1ccccc1 (stereo not given) | -4 | -8 | -4 | -1 | -6 | nt | -3 | i
O=C(N/N=C/c1ccc(N2CCOCC2)s1)c1ccccc1Cl | nt | -5 | 1 | 6 | -2 | -3 | 56 | i | eIF4H inh retest=-8;PABP FP inh retest=18
COc1ccc(CC(C)CC(=O)Nc2ccc(OC)cc2)cc1 (stereo not given) | -4 | 0 | 5 | 0 | -12 | 22 | -5 | i
CCN(CC)C(=O)C(=O)c1cccn1-c1cccc(Cl)c1C#N | -20 | 19 | 11 | 7 | -10 | -47 | -6 | i
Cc1cccc(OCCC(=O)Nc2ccc(C)c(S(=O)(=O)N3CCCCC3)c2)c1 | -13 | -3 | 1 | -13 | -4 | 33 | -1 | i
O=C(/C=C\c1ccc2c(c1)OCO2)NC1(C(=O)Nc2ccc3c(c2)OCCO3)CCCCC1 | 3 | 1 | 1 | -3 | -13 | -22 | -3 | i

Overlap with the part before: 4 compounds, followed by the next part.
SMILES | UUG fidelity | CSC inhib | MT1-MMP act inh | MT1-MMP act inh RFP | PABP FP inh | Env fusion inh | eIF4H inh | Rce1 inh | others
COc1ccc(CC(C)CC(=O)Nc2ccc(OC)cc2)cc1 (stereo not given) | -4 | 0 | 5 | 0 | -12 | 22 | -5 | i
CCN(CC)C(=O)C(=O)c1cccn1-c1cccc(Cl)c1C#N | -20 | 19 | 11 | 7 | -10 | -47 | -6 | i
Cc1cccc(OCCC(=O)Nc2ccc(C)c(S(=O)(=O)N3CCCCC3)c2)c1 | -13 | -3 | 1 | -13 | -4 | 33 | -1 | i
O=C(/C=C\c1ccc2c(c1)OCO2)NC1(C(=O)Nc2ccc3c(c2)OCCO3)CCCCC1 | 3 | 1 | 1 | -3 | -13 | -22 | -3 | i
O=C(Nc1ccccc1Cl)c1cc[n+](Cc2ccc([N+](=O)[O-])cc2)cc1 | nt | -6 | 0 | -2 | -5 | 5 | -1 | i
Cn1c(-c2ccc(-c3ccccc3)cc2)c[nH]c1=S | -28 | 22 | -6 | -9 | -12 | nt | -2 | i
O=C(NCc1ccccn1)NC1CCCCC1 | -20 | -4 | 0 | 4 | 0 | -53 | -1 | i
CCc1ccc(NC(=O)Cc2cn(C)c3ccccc23)cc1 | nt | -1 | 1 | 1 | -6 | -43 | -1 | i
Clc1ccc(CNc2cnccn2)cc1 | -37 | -7 | -3 | 1 | -12 | -13 | 7 | i
Cc1cc2c(c(=O)n1CCN(C)C)C(c1ccc(Cl)cc1)C(C#N)=C(N)O2 (stereo not given) | 4 | 7 | 2 | -1 | -2 | 9 | 0 | i
COc1ccc(-c2[nH]nc3oc(=O)cc(C)c23)cc1 | -15 | 3 | 0 | 1 | 5 | i | 4 | i
Cc1ccsc1/C=C(\C#N)C(=O)Nc1c(C)n(C)n(-c2ccccc2)c1=O | 1 | -2 | -3 | -1 | -3 | nt | 3 | i
CCOC(=O)NCc1ccc2c(c1)OCO2 | -5 | -17 | 1 | 3 | 2 | nt | -3 | i
Cn1c(=O)c2c(n(Cc3ccccc3)c1=O)NC(=O)C2CC(=O)N1CCc2ccccc2C1 (stereo not given) | -7 | nt | 1 | -3 | 10 | nt | -3 | nt
CNc1cnc(-c2ccc(F)c(F)c2F)cn1 | -12 | nt | 1 | 0 | nt | -79 | nt | nt
N/C(=N\OC(=O)COc1ccccc1)c1ccccn1 | nt | -41 | 2 | 4 | -7 | -18 | -10 | i
COc1ccc(O)c(CN2CCCC(C(=O)Nc3cccc(-n4cccn4)c3)C2)c1 (stereo not given) | -2 | -18 | 0 | -1 | -4 | 3 | -7 | i
O=C(NNS(=O)(=O)c1ccc(Cl)cc1)C1CCN(Cc2ccccc2)CC1 | nt | -6 | 1 | 6 | -4 | -17 | -3 | i
FC(F)(F)c1nnc(-c2ccccc2)nc1Oc1ccccc1 | -18 | 1 | 3 | 3 | 2 | 19 | 3 | i
O=C(Oc1cccc(NC(=O)c2ccco2)c1)c1cccc(S(=O)(=O)N2CCCC2)c1 | -17 | -7 | 1 | 2 | -12 | -32 | 5 | i
FC(F)(F)c1ccccc1Cc1c(C2CCCCC2)nc2ccc(Cl)cn12 | -11 | nt | -4 | 1 | nt | 8 | nt | nt
Cc1cccc(C(=O)OCC(=O)c2c(C)[nH]c3ccccc23)c1O | -14 | nt | 0 | -4 | nt | -33 | nt | nt
Oc1cccc(CN2CCOCC2)c1O | -21 | nt | 3 | 6 | nt | 34 | nt | nt
S=C(NCCCN1CCOCC1)N1CCN(c2nc(-c3ccc(Cl)cc3)cs2)CC1 | -8 | 104* | -3 | -19 | -8 | 75* | 1 | nt
CC1(C(=O)NS(=O)(=O)C2CC2)CCN(C(=O)c2ccccc2C(F)(F)F)C1 (stereo not given) | 10 | nt | 6 | 9 | nt | -3 | nt | nt
COc1ccc(C(=O)N2c3ccc(F)cc3CCC2C)cc1OC (stereo not given) | 0 | -12 | 2 | 1 | -2 | -29 | -11 | i
Cc1c(NC(=O)c2ccc(N3CCCC3)c([N+](=O)[O-])c2)cccc1-c1nc2ccccc2s1 | nt | 0 | 16 | -6 | -12 | nt | -4 | i
CCCCn1c(SCc2ccccn2)nc2c1c(=O)n(C)c(=O)n2C | 2 | 5 | -2 | -3 | 7 | 63 | 6 | i
Cc1ccccc1NC(=S)N(CCCN1CCC(C)CC1)Cc1ccco1 | -5 | 3 | 1 | 2 | 16 | 6 | -2 | i

Among those listed so far, two have an aryl thioether with sulfur outside any ring:
SMILES | UUG fidelity | CSC inhib | MT1-MMP act inh | MT1-MMP act inh RFP | PABP FP inh | Env fusion inh | eIF4H inh | Rce1 inh | others
COCCSc1nnc(NC(=O)C2CC(=O)N(c3ccc(C)cc3)C2)s1 (stereo not given) | nt | -22 | 2 | 6 | 22 | -1 | 2 | i
CCCCn1c(SCc2ccccn2)nc2c1c(=O)n(C)c(=O)n2C | 2 | 5 | -2 | -3 | 7 | 63 | 6 | i

The listing picks up with the two entries that preceded the break.
SMILES | UUG fidelity | CSC inhib | MT1-MMP act inh | MT1-MMP act inh RFP | PABP FP inh | Env fusion inh | eIF4H inh | Rce1 inh | others
CCCCn1c(SCc2ccccn2)nc2c1c(=O)n(C)c(=O)n2C | 2 | 5 | -2 | -3 | 7 | 63 | 6 | i
Cc1ccccc1NC(=S)N(CCCN1CCC(C)CC1)Cc1ccco1 | -5 | 3 | 1 | 2 | 16 | 6 | -2 | i
CN1/C(=C\C(=O)c2cccs2)C(C)(C)c2ccccc21 | nt | 3 | -2 | 1 | 0 | -5 | 0 | i
Cc1nc2c(c(C)c1C#N)C(=O)c1ccccc1-2 | nt | -2 | -1 | 5 | 2 | -48 | -1 | i
CCOc1ccc(NC(=O)CN(C)C(=O)c2cc3c(s2)CCC3)cc1OCC | -1 | nt | 5 | 3 | nt | -5 | nt | nt
CCOc1ccccc1NC(=O)CSc1c(C)n[nH]c1C | -7 | nt | 3 | 5 | -1 | nt | -11 | i
COCCNc1c(-c2ccc(OC)cc2)nc2ccc(Cl)cn12 | nt | -5 | -5 | -7 | 17 | 10 | 13 | i
CC(=O)Nc1ccc(-c2ccnc3c2CC(C)(C(=O)Nc2ccc(Cl)c(C(F)(F)F)c2)O3)cc1 (stereo not given) | -39 | nt | 6 | -3 | nt | 9 | nt | nt
OCCNc1nc(Nc2ccc(Cl)c(Cl)c2)nc2ccccc12 | -3 | 102* | -5 | -23 | -42 | 18 | -14 | i
O=C(CSc1cccc[n+]1[O-])Nc1cc2c(cc1Cl)C(=O)c1ccccc1C2=O | nt | 4 | -1 | 2 | -5 | -33 | -2 | i
Cc1cc([N+](=O)[O-])c2c(c1C)C1C=CCC1C(c1ccccn1)N2 (stereo not given) | nt | 7 | nt | nt | -3 | nt | 37 | i
COc1cccc(COc2ncnc3sccc23)c1 | nt | -8 | -5 | -2 | -3 | 5 | -1 | i
Cc1[nH]n(-c2ccccc2)c(=O)c1C(=O)c1ccccc1 | 0 | -1 | -2 | 3 | 25 | -6 | 5 | i
Cc1ccc(S(=O)(=O)N2CCN(C3CC(=O)N(CCc4ccccc4)C3=O)CC2)cc1C (stereo not given) | 4 | -8 | 4 | -13 | 4 | -9 | 0 | i

The list is partial; count on the stated rates, not on these rows.
